Compound activity deposited in PubChem by National Center for Advancing Translational Sciences (NCATS).
Vaccinia Venus = inhibitors of vaccinia virus (Venus reporter); 330,000 compounds, 0.46% hits; Potency, µM (doses to about 36.5 µM), inactives show top-dose activity change, negative = inhibition, usual class: inhibitors; Vaccinia virus Venus reporter expression, fluorescence; AID 720580; active means well fitted inhibition curve with a large enough effect; inconclusive means small, poorly fitted or top-dose-only effect; inactive means no such curve, though single readings can be large or run the other way; tested in A549 cells; also: nearly all actives have a fitted effect of over 30% in size; inactives centre near -10
Vaccinia mCherry = vaccinia inhibition (mCherry reporter); 310,000 compounds, 0.63% hits; AID 720579; Vaccinia virus mCherry reporter infection, fluorescence; about a quarter of the inactives have no number; Potency, µM (top dose mostly 36.5 µM), inactives show at the highest dose activity change, negative = inhibition, most hits filed as inhibitors; active = well fitted inhibition curve with a large enough effect; inconclusive = small, poorly fitted or top-dose-only effect; inactive = no such curve, though single readings can be large or run the other way; tested in A549 cells; also: nearly all actives have a fitted effect of over 35% in size; inactives centre near -10
* hit, by the source's call; & = joins results of further samples; [ ] = dose if it differs, or a comment. % is scaled to controls: 0 for no effect and ±100 for the full control effect; potency is read from the fitted curve at half-maximal effect.

For CCN(C(=O)CSc1nc2scc(-c3ccccc3)c2c(=O)n1N)C1CCS(=O)(=O)C1 (stereo not given) the results were Vaccinia Venus -14% and Vaccinia mCherry inactive.
Screening O=C(O)c1ccccc1CSc1ncccc1C(=O)O returned Vaccinia Venus -1% and Vaccinia mCherry -1%.
Screening Cc1ccc(NC(=O)OCc2cncs2)cc1 returned Vaccinia Venus -5% and Vaccinia mCherry -11%.
CCOc1ccccc1NC(=O)C(CC(C)C)NS(=O)(=O)c1ccc2c(c1)oc(=O)n2C (stereo not given) was read as Vaccinia Venus -4% and Vaccinia mCherry 2%.
Screening COc1ccc(OC)c2c(C)c(C)[nH]c12 returned Vaccinia Venus -12% and Vaccinia mCherry -15%.
CCC1CCCCN1CCCNC(=O)CN1C(=O)CSc2ccc(S(=O)(=O)N3CCOCC3)cc21 (stereo not given) was read as Vaccinia Venus 1%[7.34 µM] and Vaccinia mCherry -11%.
`COc1ccc(-c2oc3ncn4nc(-c5ccccc5Cl)nc4c3c2-c2ccc(OC)cc2)cc1` gave Vaccinia Venus -1% and Vaccinia mCherry -6%.
`CN(C)C(=O)Oc1cccc(OCc2n(C)c3ccccc3[n+]2C)c1` gave Vaccinia Venus -6% and Vaccinia mCherry -9%.
`CCOC(=O)C1=CCC(c2ccc(C#N)cc2)N(S(=O)(=O)c2ccc(C)cc2)C1` (stereo not given) gave Vaccinia Venus -2% and Vaccinia mCherry 6%.
For CCSC1=NCCN1S(=O)(=O)c1ccccc1 the results were Vaccinia Venus -3% and Vaccinia mCherry inactive.
COc1ccc(-c2cn(-c3ccc(OC)cc3)c3[n+]2-c2ccccc2CC3)cc1 was read as Vaccinia Venus -20% and Vaccinia mCherry -22%.
CCOc1ccc(NC(=O)COC(=O)c2cc(C)oc2C)cc1 was read as Vaccinia Venus -18% and Vaccinia mCherry inactive.
O=C(c1cc(S(=O)(=O)N2CCN(c3ccccc3)CC2)ccc1Cl)N1CCCCCCC1 was read as Vaccinia Venus -18% and Vaccinia mCherry -23%.
CCCNC(=O)[C@@H]1CCCN1C(=O)C1CCN(S(=O)(=O)c2ccc(C)cc2)CC1 was read as Vaccinia Venus -13% and Vaccinia mCherry inactive.
NCCSC1CC(=O)N(Cc2ccc(F)cc2)C1=O (stereo not given) was read as Vaccinia Venus -10% and Vaccinia mCherry -19%.
Screening CNC(=S)Nc1cc2oc3ccccc3c2cc1OC returned Vaccinia Venus -28% and Vaccinia mCherry inconclusive.
CSCCC(NC(=O)C1CCC(C)CC1)C(=O)OCC(=O)c1ccc(Cl)cc1 (stereo not given) was read as Vaccinia Venus -13% and Vaccinia mCherry -15%.
CC1CCCC(C)N1/N=C/c1ccc(O)cc1 (stereo not given) was read as Vaccinia Venus -8% and Vaccinia mCherry -2%.
Screening CSc1ccc2nnc(-c3ccc(C)cc3)n2n1 returned Vaccinia Venus -10% and Vaccinia mCherry 25%.
O=c1c2c(-c3ccco3)csc2nc(SCc2cn3cccnc3n2)n1-c1ccccc1 was read as Vaccinia Venus 4% and Vaccinia mCherry -15%.
`Cc1cccc(Cn2cc(C(=O)Nc3ccc(S(N)(=O)=O)cc3)ccc2=O)c1` gave Vaccinia Venus -6% and Vaccinia mCherry 4%.
O=C(NCSc1ccccc1)c1ccccc1 was read as Vaccinia Venus -12% and Vaccinia mCherry -22%.
CCCn1c(C)cc(C(=O)COC(=O)c2nccnc2N)c1C was read as Vaccinia Venus -10% and Vaccinia mCherry -17%.
`N#Cc1ccccc1S(=O)(=O)N1CCN(c2nc(-c3cccs3)nc3ccccc23)CC1` gave Vaccinia Venus -12%&-16% and Vaccinia mCherry -11%&-17%.
Screening COc1ccc(-n2nc(C(=O)NCC(=O)NCCN(C)C)c3ccccc3c2=O)c(OC)c1 returned Vaccinia Venus -7% and Vaccinia mCherry -13%.
`CN1CCN(C(=O)Nc2ccc3c(c2)N(C)C(=O)c2ccccc2S3)CC1` gave Vaccinia Venus -3% and Vaccinia mCherry -1%.
Screening COc1ccc(NC(=O)c2nc3nc(C)cc(C(F)F)n3n2)cc1OC returned Vaccinia Venus -10% and Vaccinia mCherry 20%.
For CC(C)(C)c1ccc(C(=O)NNC(=S)NCc2ccco2)cc1 the results were Vaccinia Venus -8% and Vaccinia mCherry -18%.
For CCN(CC)C(=O)[C@H]1C[C@H](CC(=O)NCc2ccc(OC)c(OC)c2)C(=O)N2CCc3c([nH]c4cc(CCC(=O)N(C)C)ccc34)[C@]12C the results were Vaccinia Venus -7% and Vaccinia mCherry inactive.
For COc1ccc(OC)c(N(CCN2C(=O)c3ccccc3C2=O)C(=O)CCl)c1 the results were Vaccinia Venus -29% and Vaccinia mCherry inconclusive.
Screening COc1ccc(CN2CCN(C(=O)c3ccccc3C(=O)c3ccccc3)CC2)cc1F returned Vaccinia Venus inconclusive and Vaccinia mCherry -28%.
Screening C[C@H](NC(=O)c1ncn2c1c(=O)[nH]c1ccccc12)c1ccccc1 returned Vaccinia Venus -6% and Vaccinia mCherry -20%.
COc1ccc(C(CCN2CCOCC2)c2c(O)cc(OC)cc2OC)cc1 (stereo not given) was read as Vaccinia Venus -12% and Vaccinia mCherry inactive.
For CSc1nsc(SC)c1C(=O)N1CCN(S(=O)(=O)c2ccc(C)cc2)C1C(C)C (stereo not given) the results were Vaccinia Venus -5%.
Screening C/C(=N\NC(=O)c1cccc(S(=O)(=O)Nc2ccccc2Cl)c1)c1ccc(-n2ccnc2)cc1 returned Vaccinia Venus 0% and Vaccinia mCherry 4%.
COc1ccc(/C=C/C(=O)Nc2ccc(OC)nc2)cc1 was read as Vaccinia Venus -17% and Vaccinia mCherry inconclusive.
COc1ccc(Nc2nnc(-c3ccc(C)c(S(N)(=O)=O)c3)c3ccccc23)cc1 was read as Vaccinia Venus -8% and Vaccinia mCherry -23%.
`C(=C\c1ccnc2ccccc12)/c1ccc(N2CCNCC2)cc1` gave Vaccinia Venus -17% and Vaccinia mCherry inconclusive.
OC1(c2ccc(F)cc2)CSC(=Nc2cccnc2)N1Cc1ccco1 (stereo not given) was read as Vaccinia Venus -6% and Vaccinia mCherry -7%.
Screening CN1CCN(C(=S)c2ccc(Cl)cc2)CC1 returned Vaccinia Venus -10% and Vaccinia mCherry -19%.
O=C(CC1C(=O)NCCN1Cc1ccoc1)NCCc1ccc(Cl)cc1 (stereo not given) was read as Vaccinia Venus -11% and Vaccinia mCherry inactive.
`CC(C(=O)NCCN1CCOCC1)(c1ccccc1)c1ccccc1` gave Vaccinia Venus 2% and Vaccinia mCherry inactive.
For O=C(NC1CC(=O)N(c2ccc(Cl)cc2)C1)c1ccc2c(c1)OCO2 (stereo not given) the results were Vaccinia Venus -9% and Vaccinia mCherry -6%.
For Cc1cccc(C)c1NC(=O)c1ccc(-c2cc(F)ccc2F)o1 the results were Vaccinia Venus 9% and Vaccinia mCherry 6%.
Screening CC(C)[C@H](NC(=O)c1ccc(Cl)cc1)C(=O)Nc1cccc(S(=O)(=O)N2CCOCC2)c1 returned Vaccinia Venus -10% and Vaccinia mCherry inactive.
S=C(Nc1ccc(Cl)c(Cl)c1)N1CCCC1 was read as Vaccinia Venus -8% and Vaccinia mCherry inactive.
Screening O=C(c1ccc2c3c(cccc13)CC2)N1CCOCC1 returned Vaccinia Venus -15% and Vaccinia mCherry inactive.
CC[C@]12C(=O)N(C)C[C@H]([C@@H]3C(=O)N(C)C(=O)[C@@H]31)N2C(=O)c1ccc(C(F)(F)F)cc1 was read as Vaccinia Venus 1% and Vaccinia mCherry inactive.
For Cc1ccc(NC(=O)CSCC(=O)OC(C)C(=O)Nc2ccc(S(N)(=O)=O)cc2)c(C)c1 (stereo not given) the results were Vaccinia Venus 5% and Vaccinia mCherry -7%.
For CC1CCCN(c2nc3c(c(=O)[nH]c(=O)n3C)n2CCSc2nc3ccccc3o2)C1 (stereo not given) the results were Vaccinia Venus -24% and Vaccinia mCherry -5%.
Screening COc1cc([C@@H]2OC[C@@H]3[C@H]2CO[C@@H]3c2ccc3c(c2)OCO3)ccc1O returned Vaccinia Venus -12% and Vaccinia mCherry inconclusive.
For CC1CCN(CCCCOc2cccc(Br)c2)CC1 the results were Vaccinia Venus -29% and Vaccinia mCherry -2%.
CCCCN1C(=O)NC(c2ccc(OC)cc2)C(C(=O)OCc2ccccc2)=C1C (stereo not given) was read as Vaccinia Venus -18% and Vaccinia mCherry inactive.
Screening Cc1csc(SCC(=O)NC(=O)Cc2ccccc2)n1 returned Vaccinia Venus -8% and Vaccinia mCherry -12%.
Screening O=C(CSc1nnc(C2CCCCC2)o1)Nc1ccccc1Cl returned Vaccinia Venus -8% and Vaccinia mCherry -15%.
`Cc1ccc(CCNc2nc3c(S(=O)(=O)c4ccccc4)nnn3c3ccsc23)cc1` gave Vaccinia Venus -21% and Vaccinia mCherry -20%.
Clc1ccccc1-c1ccc(CN2CCN(c3ccccc3)CC2)o1 was read as Vaccinia Venus -14%.
`CCCCn1c(N)c(N(CC)C(=O)/C=C/c2ccco2)c(=O)[nH]c1=O` gave Vaccinia Venus -7% and Vaccinia mCherry inactive.
Screening COC(=O)[C@H]1CN(C(=O)c2ccccc2)C(=O)N1 returned Vaccinia Venus -1% and Vaccinia mCherry -19%.
CC(=O)Oc1ccc(C(=O)[C@H]2[C@H]3C(=O)N(c4cccc5ccccc45)C(=O)[C@H]3[C@@H]3C=CC=NN32)cc1 was read as Vaccinia Venus 9% and Vaccinia mCherry -13%.
CCOC(=O)[C@]12Cc3cc(OC)ccc3[C@H]1N(CC(=O)OC)C(=O)c1cc(OC)ccc12 was read as Vaccinia Venus 0% and Vaccinia mCherry 13%.
Screening COc1ccc(N2C3=C(C(=O)CC(C)(C)C3)C(c3ccccc3OC)C3=C2CC(C)(C)CC3=O)cc1 returned Vaccinia Venus -20% and Vaccinia mCherry -19%.
`CC(=O)N1CCC2(CC1)C(C#N)=C(N)Oc1n[nH]c(C(F)(F)F)c12` gave Vaccinia Venus -4% and Vaccinia mCherry inactive.
O=C(CSc1nc2ccccc2c(=O)n1Cc1ccco1)NCc1ccccc1 was read as Vaccinia Venus -9% and Vaccinia mCherry -12%.
Screening Cc1cc(C)c(S(=O)(=O)Nc2nccs2)c(C)c1 returned Vaccinia Venus -11% and Vaccinia mCherry -20%.
Screening CC1CN(S(=O)(=O)c2ccccc2)C(C)CN1S(=O)(=O)c1ccccc1 (stereo not given) returned Vaccinia Venus -11% and Vaccinia mCherry -10%.
CCN(CC)c1ncnnc1-c1ccccc1 was read as Vaccinia Venus -15% and Vaccinia mCherry -20%.
CCOc1ccc(OCC)c(Nc2nc3ccc(Cl)cc3n3cnnc23)c1 was read as Vaccinia Venus -24% and Vaccinia mCherry -25%.
`CC1(C(=O)NCc2ccccc2)CCC(=O)N1C1CCN(Cc2ccccc2)CC1` (stereo not given) gave Vaccinia Venus 10% and Vaccinia mCherry 2%.
Screening N#C/C(=C\c1ccc(-c2ccc(F)cc2)o1)C(=O)Nc1nc(-c2cccs2)cs1 returned Vaccinia Venus 5% and Vaccinia mCherry -19%.
Screening CN1CCN(S(=O)(=O)c2ccc(NS(=O)(=O)c3ccccc3)cc2)CC1 returned Vaccinia Venus -4% and Vaccinia mCherry inactive.
Screening CC(C)(/C=N/O)N(O)C=C1C=CC(=O)C=C1 returned Vaccinia Venus -2% and Vaccinia mCherry -10%.

An excerpt from above in order of length of the SMILES, high to low:
Screening N#C/C(=C\c1ccc(-c2ccc(F)cc2)o1)C(=O)Nc1nc(-c2cccs2)cs1 returned Vaccinia Venus 5% and Vaccinia mCherry -19%.
Screening CN1CCN(S(=O)(=O)c2ccc(NS(=O)(=O)c3ccccc3)cc2)CC1 returned Vaccinia Venus -4% and Vaccinia mCherry inactive.
O=C(CSc1nc2ccccc2c(=O)n1Cc1ccco1)NCc1ccccc1 was read as Vaccinia Venus -9% and Vaccinia mCherry -12%.
Screening CC(C)(/C=N/O)N(O)C=C1C=CC(=O)C=C1 returned Vaccinia Venus -2% and Vaccinia mCherry -10%.
CCN(CC)c1ncnnc1-c1ccccc1 was read as Vaccinia Venus -15% and Vaccinia mCherry -20%.

(next part)
Screening COc1ccccc1N=NNc1ccccc1OC returned Vaccinia Venus -27% and Vaccinia mCherry -23%.
`COc1cc(/C=N/O)cc(Cl)c1OC` gave Vaccinia Venus -8% and Vaccinia mCherry -14%.
Screening CN1CCC(OC2c3ccccc3CCc3ccccc32)CC1 returned Vaccinia Venus -27% and Vaccinia mCherry inactive.
COc1ccc(N2CCN(CCCNC(=O)c3ccc4nc(CCc5ccccc5)oc4c3)CC2)cc1 was read as Vaccinia Venus inconclusive and Vaccinia mCherry inconclusive.
For COc1ccc(Br)cc1C(=O)NC(=S)Nc1ccc(Cl)c(C(=O)O)c1 the results were Vaccinia Venus -15% and Vaccinia mCherry inactive.
`COc1ccccc1N1CCN(S(=O)(=O)c2c(C)sc3ncn(CC(=O)Nc4ccc(C(F)(F)F)cc4)c(=O)c23)CC1` gave Vaccinia Venus -8% and Vaccinia mCherry 12%.
Nc1nonc1NC(=O)CSc1nc2ccccc2s1 was read as Vaccinia Venus -4%.
For CC1(C)CC(NS(=O)(=O)c2ccc(Cl)cc2)CC(C)(C)N1 the results were Vaccinia Venus -4% and Vaccinia mCherry -13%.
`CCOC(=O)c1sc(NC(=O)CN2CCN(c3ccccc3)CC2)nc1C` gave Vaccinia Venus -12% and Vaccinia mCherry -19%.
Screening COC(=O)c1ccc(C)c(NC(=O)CCc2ccc(OC)c(OC)c2)c1 returned Vaccinia Venus -3% and Vaccinia mCherry -6%.
For Cc1c(CCO)sc[n+]1CC(=O)c1ccccc1 the results were Vaccinia Venus -10% and Vaccinia mCherry -12%.
CC(C)n1c(=O)c2ccccc2n1Cc1cn(CCc2c[nH]c3ccccc23)nn1 was read as Vaccinia Venus 0% and Vaccinia mCherry inactive.
